Source: PubChem
ALR H2O2 inh = human ALR oxidase inhibition via reduced H2O2; AID 485317; inhibition, % (no concentration beside the values); P55789; 3.8% of 290,000 active; purified ALR, DTT oxidation, H2O2 HRP-luminol luminescence;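 active = mean and each replicate at 75% or more; inconclusive = only one of the two met; inactive = neither met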;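 note: stock transfer was 7.5 nL into about 7.5 µL; 0% = neutral wells and 100% = wells with inactivated enzyme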
Target sequence (P55789 whole entry, looked up): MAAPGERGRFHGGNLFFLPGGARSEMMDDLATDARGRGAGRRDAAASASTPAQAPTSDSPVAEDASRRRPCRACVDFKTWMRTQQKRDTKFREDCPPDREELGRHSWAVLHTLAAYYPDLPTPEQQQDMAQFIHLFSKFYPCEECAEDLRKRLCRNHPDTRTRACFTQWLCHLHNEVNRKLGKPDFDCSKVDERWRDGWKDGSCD
rRNA inh HTS = inhibits bacterial ribosomal RNA function over humanized ribosomes; E. coli WT GFP vs humanized-ribosome RFP mutants, fluorescence, 24 h; active compounds read low; DMSO median 0, no signal -100; GFP signal change (wild-type ribosome), % (test concentration not listed); 1.6% of 350,000 active;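 active = significant combined selectivity score with lowered wild-type GFP, culture density cut under 30%, mutant RFP and density less affected; inactive = any of these conditions unmet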; note: one replicate is shown; some compounds called inactive have numbers as strong as hits
Vif A3G = inhibitors of Vif binding to APOBEC3G peptide, primary screen, biochemical, TR-FRET, GST-Vif 1-94, biotin-A3G peptide, dose response retest (AID 1117319). 0.57% of 260,000 active. TR-FRET GST-Vif / biotin-A3G peptide binding; higher % means a stronger effect; test concentration not given here; strong numbers were not always called active. inhibition, %, or IC50 in µM where a hit was titrated;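 active = above the screen mean plus three standard deviations and confirmed in dose response; inconclusive = results disagree or hit not tested in dose response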;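 note: Vif residues 1-94 fused to GST binding biotinylated APOBEC3G peptide 110-148; 0% = full assay without inhibitor and 100% = GST in place of GST-Vif; retest series ran down from 100 µM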
FGF22 binding = binders of recombinant human FGF22 by thermal shift; Q9HCT0; SYPRO orange fluorescence; percent of sucrose octasulfate shift, DMSO zero; calls only at 9.99 µM; 1.5% of 340,000 active; AID 651658;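 active = melting point raised past a set limit in the mean and every replicate; inconclusive = no clear call; three in four hits are not shown here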
Target sequence (Q9HCT0 whole entry, looked up): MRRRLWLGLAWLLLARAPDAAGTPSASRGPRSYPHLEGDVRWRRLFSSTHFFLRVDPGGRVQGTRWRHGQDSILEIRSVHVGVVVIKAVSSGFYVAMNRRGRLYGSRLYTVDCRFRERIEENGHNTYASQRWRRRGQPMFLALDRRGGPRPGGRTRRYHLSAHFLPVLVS
Ecoli growth = blocks Escherichia coli growth | OD600, 23 h; active compounds read low | AID 1053175 | 0.21% of 330,000 active | OD600 absorbance (concentration not given with the values);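 active = OD600 absorbance below the run mean of sample wells minus 3.6 SD, in any replicate, cut at about 0.56 in these data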;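 note: stock transfer was 300 nL into about 60 µL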
MLL AF4-AF9 inh = MLL-AF4/AF9 protein interaction inhibition; P42568; inhibition, % at 10 µM; AlphaScreen, biotin-AF4 peptide binding to FLAG-AF9; 0.47% of 350,000 active;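 active = every replicate reaching a set inhibition limit, whatever the replicate mean, cut at about 25% in these data; inconclusive = mean inhibition reaches that limit but some replicates miss it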;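 note: 0% = plate neutral control median and 100% = total signal loss; the record names both 10 and 1 µM as test concentration; the first replicate is given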
Target sequence (P42568 whole entry, looked up): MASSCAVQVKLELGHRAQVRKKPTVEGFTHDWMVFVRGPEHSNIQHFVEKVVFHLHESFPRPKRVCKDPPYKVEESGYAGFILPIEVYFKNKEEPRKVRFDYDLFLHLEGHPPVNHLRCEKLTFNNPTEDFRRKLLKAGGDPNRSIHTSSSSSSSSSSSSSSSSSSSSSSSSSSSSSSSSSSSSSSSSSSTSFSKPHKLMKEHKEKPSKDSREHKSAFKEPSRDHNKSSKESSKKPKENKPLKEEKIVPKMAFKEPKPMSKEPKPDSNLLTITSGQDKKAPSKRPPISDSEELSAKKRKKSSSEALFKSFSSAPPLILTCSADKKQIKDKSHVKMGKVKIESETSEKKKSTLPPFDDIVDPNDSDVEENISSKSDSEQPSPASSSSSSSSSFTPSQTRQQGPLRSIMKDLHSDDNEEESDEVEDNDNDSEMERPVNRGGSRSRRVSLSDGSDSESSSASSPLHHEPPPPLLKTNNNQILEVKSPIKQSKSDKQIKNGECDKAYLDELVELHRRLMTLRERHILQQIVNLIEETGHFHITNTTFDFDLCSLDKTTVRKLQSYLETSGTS
HNF4A DNA FP = change in binding of human HNF4 alpha to DNA; P41235; AID 1224865; activity change, % at 10 µM; HNF4a-FITC DNA binding, fluorescence polarization, 1 h; 0.3% of 360,000 active; in the data active = activity change above about 30%, passing the limit was not always enough;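 note: controls were the assay level and a saturating level of protein; the project sought stronger binding though the title names inhibitors; some compounds called inactive have numbers as strong as hits; positive values seem to mean higher polarization but the record does not say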
rRNA inh HTS OD600 = second read-out of rRNA inh HTS, no call of its own (marks repeat the call); OD600 change, %; measured here: OD600 growth;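 optical density of the mix in the first replicate; 0 = DMSO median and -100 = no signal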
rRNA inh HTS RFP = further read-out of rRNA inh HTS, marked with its call; RFP signal change, %; measured here: RFP humanized mutant strains;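 first replicate; 0 = DMSO median and -100 = no signal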
Numbers without * were called inactive; i = inactive; ? = inconclusive; nt = no result given; & = joins results of further samples. A portion of the library. The share of hits here may be higher or lower than overall.

molecule,ALR H2O2 inh,rRNA inh HTS,rRNA inh HTS OD600,rRNA inh HTS RFP,Vif A3G,FGF22 binding,Ecoli growth,MLL AF4-AF9 inh,HNF4A DNA FP
O=C(CSc1ccccn1)N1CCN(c2ncc(C(F)(F)F)cc2Cl)CC1,-4.4,nt,nt,nt,-8.4%,i,0.693,0.7,-6.4
COc1cc(/C=C2\C(=O)ON=C2c2ccccc2)cc(Br)c1O,nt,-3.7,10.9,9.4,0.5%,i,0.655,-36.9,2.3
CC1=CC(c2ccccc2)=Nc2ccc(C)cc2N1,1.3,6.0,3.7,-3.4,3.4%,i,0.702,4.8,0.8
O=C1NC(=S)SC1=Cc1cccs1,nt,0.1,8.9,5.6,-1.9%,i,0.638,0.1,8.5
CN(Cc1ccccc1)C(=O)CN1C(=O)c2ccc([N+](=O)[O-])cc2C1=O,10.7,4.5,8.6,-1.7,nt,i,0.697,2.5,-1.4
CCCC(=O)N1CCc2cc(OC)c(OC)cc2C1COc1ccccc1OC (stereo not drawn),0.1,-0.2,-1.6,1.2,-3.5%,i,0.684,2.1,-0.2
CC(C)NC(=O)N1[C@@H](C#N)[C@@H](c2ccc(-c3ccc(F)cc3)cc2)[C@@H]1CO,nt,1.1,-7.8,2.8,nt,i,nt,-0.8,nt
CCC(C)C(=O)Nc1nccs1 (stereo not drawn),-1.1,3.4,13.0,-1.8,5.0%,i,0.682,-0.5,4.8
CN1CCN(S(=O)(=O)c2cccc(C(=O)Oc3ccc(C(C)(C)C)cc3)c2)CC1,3.2,-4.2,-47.9,11.8,1.3%,i,0.632,12.8,2.5
O=S(=O)(NCC1CCCO1)c1cccc(C(F)(F)F)c1 (stereo not drawn),-2.6,nt,nt,nt,18.9%,nt,0.663,nt,1.3
Cc1cc2[nH]c3ccccc3c2cn1,-4.7,7.8,14.7,-0.1,nt,i,0.651,-0.6,0.5
CCCc1cc(=O)[nH]c(SCC(=O)Nc2ccc(C(=O)Nc3ccccc3OC)cc2)n1,-0.1,0.8,6.5,5.0,-1.9%,i,0.68,-2.8,-1.0
CCOC(=O)Cn1c(=N)n(CCOc2ccc(OC)cc2)c2ccccc21,-10.2,nt,nt,nt,21.7%,nt,0.668,nt,1.9
Nc1c(C(=O)N2CCOCC2)sc2nc(N3CCOCC3)c3c(c12)CCCC3,-5.0,nt,nt,nt,-9.8%,i,0.664,-5.5,-2.0
CCOCCCNC(=O)C(NC(=O)CNC(C)=O)c1ccc(C)cc1 (stereo not drawn),-2.5,nt,nt,nt,-5.7%,nt,0.679,nt,-9.6
C#CCOC(=O)CN1C(=O)c2cccc3cccc(c23)C1=O,-1.5,6.2,-3.1,1.0,nt,i,0.655,3.4,1.2
CC1=CC2=NC(=O)/C(=C\c3cn(C)c4ccccc34)C(=N)N2O1,-5.5,17.1,17.6,6.5,nt,i,0.735,-2.6,4.3
COC(=O)c1ccc(SCC(=O)N2CCC(C)CC2)c([N+](=O)[O-])c1,-5.3,nt,nt,nt,nt,nt,0.69,nt,-0.8
CCn1cc(-c2csc(N)n2)c(C)n1,nt,2.4,-5.7,-3.4,25.0%,i,0.711,-1.3,4.6
CCN(CC)C(=S)SCc1csc(CC(=O)Nc2ccccc2C)n1,2.4,-8.4,-30.7,-1.7,nt,i,0.701,-5.5,2.0
O=S(Cc1ccccc1)CC(O)(c1ccc(Cl)cc1)c1ccc(Cl)cc1 (stereo not drawn),-51.1,nt,nt,nt,3.7%,nt,0.699,nt,-0.6
O=S(=O)(Nc1ncccn1)c1ccc(NC(=S)NCc2cccnc2)cc1,-3.5,12.3,8.3,1.9,4.7%,nt,0.654,-1.0,3.3
CC(OC(=O)c1nn(C(C)C)c(=O)c2ccccc12)C(=O)Nc1ncc(Cl)cc1Cl (stereo not drawn),nt,6.2,18.4,2.1,nt,i,0.686,0.4,0.1
CO[C@H]1CN(C)C(=O)c2ccc(NS(C)(=O)=O)cc2OC[C@H](C)N(Cc2nccs2)C[C@@H]1C,nt,-4.5,-0.4,-4.3,nt,i,nt,-4.4,nt
Cc1cc(C(=O)OCC(=O)Nc2nnc(C(C)C)s2)c2ccccc2n1,nt,nt,nt,nt,-1.1%,nt,0.726,nt,-2.3
C[C@H]1CN([C@@H](C)CO)C(=O)c2cc(/C=C/c3ccccc3)cnc2O[C@H]1CN(C)S(=O)(=O)c1ccc(F)cc1,nt,-2.3,-0.4,1.7,nt,i,nt,5.8,nt
CCn1c2ccccc2c2cc(NC(=O)CSc3nnnn3-c3ccccc3)ccc21,25.4,nt,nt,nt,-13.1%&-8.8%,nt,0.784,nt,-1.5
Cc1nn(C)c(C(=O)Nc2cccc(Nc3ccccc3)c2)c1[N+](=O)[O-],97.5*,-10.4,4.5,1.6,23.6%,i,nt,12.5,9.7
N=c1c2c(ncn1CCCO)Oc1c(ccc3ccccc13)C2c1ccccc1 (stereo not drawn),-10.8,-39.6*,-28.8*,-5.6*,4.2%,i,0.654,nt,2.3
CCc1ccc(C(=O)N2CCN(S(=O)(=O)c3sc(C(=O)O)c(C)c3C(=O)O)CC2)cc1,11.3,17.9,16.8,-2.8,nt,i,0.717,-0.2,-0.2
C[C@H]1CN([C@@H](C)CO)C(=O)c2cc(NC(=O)Nc3ccccc3)ccc2O[C@@H]1CN(C)Cc1ccc2c(c1)OCO2,nt,-0.4,-7.0,2.5,nt,i,nt,7.8,nt
CN1c2ccc(C3=CCCCC3)cc2[C@@H]2[C@@H](CCN2C(=O)Nc2ccccc2F)[C@@H]1CO,nt,-4.5,17.1,-0.1,nt,i,nt,12.0,nt
CCOc1ccc(NC(=O)COC(=O)C23CC4CC(CC(C4)C2)C3)c([N+](=O)[O-])c1,-3.7,10.5,24.9,2.3,nt,i,0.697,0.5,-0.4
Cc1ccc(C)c(NC(=O)COC(=O)CCc2ccc(S(=O)(=O)N3CCOCC3)cc2)c1,-13.9,-2.2,-0.5,-3.2,7.8%,i,0.734,-0.4,0.3
COc1ccc(-n2c(Cc3cccn3C)nnc2SCC(=O)Nc2cc(Cl)ccc2OC)cc1,8.4,0.8,-1.4,1.3,?,i,0.719,6.4,3.1
c1ccc2c(C3OCC4(CCCC4)CO3)cccc2c1,nt,-25.9,-42.8,-1.6,2.8%,i,nt,-14.8,4.4

Marked active in ALR H2O2 inh, of those listed so far:
molecule,ALR H2O2 inh,rRNA inh HTS,rRNA inh HTS OD600,rRNA inh HTS RFP,Vif A3G,FGF22 binding,Ecoli growth,MLL AF4-AF9 inh,HNF4A DNA FP
Cc1nn(C)c(C(=O)Nc2cccc(Nc3ccccc3)c2)c1[N+](=O)[O-],97.5*,-10.4,4.5,1.6,23.6%,i,nt,12.5,9.7

Additional records.
molecule,ALR H2O2 inh,rRNA inh HTS,rRNA inh HTS OD600,rRNA inh HTS RFP,Vif A3G,FGF22 binding,Ecoli growth,MLL AF4-AF9 inh,HNF4A DNA FP
CN1C[C@@H]2[C@@H]3C(=O)N(Cc4ccccc4)C(=O)[C@@H]3[C@](C)(C1=O)N2C(=O)c1ccccc1,nt,16.9,8.1,-0.3,nt,i,nt,-4.3,-4.0
COc1cccc(NC(=O)COC(=O)c2ccc(S(=O)(=O)NCc3ccco3)cc2)c1,14.7,nt,nt,nt,10.0%,nt,0.697,nt,-5.3
NC(=O)C1(N2CCCCC2)CCN(S(=O)(=O)c2ccc(Cl)s2)CC1,-9.4,-2.5,9.1,21.9,1.5%,i,0.624,1.7,5.7
O=C(NC(=S)NNC(=O)[C@H]1C[C@@H]1c1ccccc1)c1cccc(F)c1,98.5*,nt,nt,nt,-4.4%,i,0.703,0.0,3.5
COc1ccccc1-c1nc(SCC(=O)Nc2ccccc2F)n[nH]1,-15.2,-26.9*,-17.8*,0.8*,nt,i,0.688,-1.1,-2.9
Cc1cc(OCC(=O)OCC(=O)NCc2cccs2)ccc1Cl,nt,-4.2,-19.4,-1.6,-4.9%,i,0.681,-0.9,-4.2
O=C(Nc1cc(C(F)(F)F)ccc1N1CCOCC1)c1cccc(S(=O)(=O)N2CCOCC2)c1,nt,12.1,15.3,1.1,nt,i,nt,-8.3,-1.0
CN(C)CCOC(=O)c1ccc(COc2ccccc2Br)o1,nt,2.8,4.7,-6.8,-5.9%,i,0.686,2.4,2.1
CCC(=O)Nc1cc(-c2nn(C)c(=O)c3ccccc23)ccc1N1CCOCC1,-5.9,nt,nt,nt,-1.7%,nt,0.64,nt,2.2
O=C(CCN1CCCC1=O)NC1CCCc2c1cnn2-c1ccc(F)cc1F (stereo not drawn),-15.4,5.7,17.8,2.2,-0.8%,i,0.711,-6.0,-2.3
C[C@@H]1CCCCO[C@H](CN(C)C(=O)CCCN(C)C)[C@@H](C)CN([C@H](C)CO)C(=O)c2cc(NC(=O)NC3CCCCC3)ccc2O1,nt,-0.9,4.0,0.4,nt,i,nt,-1.8,nt
CC1CCN(c2cc(N3CCOCC3)c(F)cc2[N+](=O)[O-])CC1,-8.3,nt,nt,nt,-4.2%,nt,0.756,nt,-0.3
OCC(CO)(CO)N=Cc1c(O)ccc2ccccc12,-3.9,nt,nt,nt,5.5%,nt,0.694,nt,-2.1
CC(C)Cc1nnc(NC(=O)C2=COCCO2)s1,-1.8,19.9,13.7,-1.0,-5.7%,i,0.66,-0.1,4.4
O=C(Cn1ncc2c1-c1ccccc1OC2)Nc1ccc(S(=O)(=O)N2CCCCC2)cc1,-2.0,1.4,-12.9,-0.6,-2.9%,i,0.685,9.5,2.0
Cc1cc2[nH]c(=O)c(=O)[nH]c2cc1S(=O)(=O)N1CCN(c2cccc(C(F)(F)F)c2)CC1,-33.2,-4.3,-4.5,4.1,nt,i,0.695,-0.9,1.4
CN(C)c1ccc(/C=N/N2C(=O)c3ccccc3C2=O)cc1,1.4,6.1,-1.0,-9.0,-1.4%,i,nt,-0.1,3.3
Cc1cc(C)n(C(=O)c2cccc(S(=O)(=O)N3CCCC3)c2)n1,2.0,nt,nt,nt,14.9%,nt,0.727,nt,-1.4
CCCCNC(=O)NCCN1CCOCC1,-3.3,23.9,16.5,1.6,-5.7%,i,0.702,-4.8,-0.5
COCCNC(=O)c1onc(CSc2ccc(F)c(F)c2)c1C(=O)NCCOC,4.9,nt,nt,nt,nt,nt,0.713,nt,3.6
C/C(=N\Nc1cccc([N+](=O)[O-])c1)c1cc2ccccc2o1,-11.5,nt,nt,nt,-4.6%,nt,nt,0.5,-0.9
CC(OC(=O)c1nsc(Cl)c1Cl)C(=O)NCc1cccs1 (stereo not drawn),nt,nt,nt,nt,3.1%,nt,0.692,nt,-6.8
C=CCOC(=O)C1=C(C)NC(=S)C(C#N)(CC=C)C1c1ccccc1Cl (stereo not drawn),0.5,-11.3,4.8,6.9,nt,i,0.633,11.2,0.2
Cc1ccc(C(=S)N2CCN(Cc3ccccc3)CC2)cc1,-5.7,-32.4,-41.5,-0.8,-17.3%,nt,0.678,0.9,1.5
CCCCSCCCNC(=O)C1CCC(CNS(=O)(=O)c2ccc(NC(C)=O)cc2)CC1 (stereo not drawn),-7.8,5.1,8.1,0.0,-5.7%,i,0.685,-2.5,2.5
COc1cc(/C=N/NC(=O)c2csc3c2CCCC3)cc(OC)c1O,3.8,-0.9,-2.5,-2.9,13.2%,i,nt,-7.7,-2.4
Cc1n[nH]c(=S)n1/N=C/c1ccc(-c2ccc(Cl)cc2)o1,-1.8,6.4,4.6,-0.8,nt,i,nt,-1.0,8.7
